Cruzain Triton = blocks cruzain activity in presence of Triton detergent | purified cruzain, Z-FR-AMC fluorescence, 0.01% Triton | 200,000 compounds, 0.43% hits | Potency, µM, for inactives: max response, negative = inhibition, hits mostly inhibitors | P25779;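 note: plate controls were neutral wells for no effect and buffer without enzyme for full effect; nearly all actives have a fitted effect of over 40% in size; top concentration of the series not given in the record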
Target sequence (P25779 123-467 limits assumed): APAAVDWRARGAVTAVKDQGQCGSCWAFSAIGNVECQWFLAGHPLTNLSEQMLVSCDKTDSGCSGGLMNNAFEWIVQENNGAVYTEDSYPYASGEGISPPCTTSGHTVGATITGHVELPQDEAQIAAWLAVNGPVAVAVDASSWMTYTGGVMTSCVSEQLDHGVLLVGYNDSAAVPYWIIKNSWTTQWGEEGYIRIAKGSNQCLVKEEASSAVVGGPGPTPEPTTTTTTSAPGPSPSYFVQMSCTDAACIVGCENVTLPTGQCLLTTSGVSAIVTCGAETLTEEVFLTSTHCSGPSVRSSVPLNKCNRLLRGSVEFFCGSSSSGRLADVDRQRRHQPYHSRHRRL
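Compounds were screened in titration against cruzain (1.5 nM) with 0.01% Triton X-100 to counter colloidal aggregation. Activity was the AMC fluorescence increase over 60 s after adding 2 uM Z-FR-AMC at pH 5.5.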
Cruzain inh noDet = cruzain (T. cruzi) inhibition without detergent | AID 1476 | Potency, µM, without a hit: max response, negative = inhibition, hits mostly inhibitors | 200,000 compounds, 2.3% hits | P25779 | purified cruzain, Z-FR-AMC fluorescence, no detergent;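 note: plate controls were enzyme without inhibitor for no effect and buffer without enzyme for full effect; nearly all actives have a fitted effect of over 40% in size; top concentration of the series not given in the record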
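Purified cruzain at 1.5 nM, pre-incubated 15 min with compound at room temperature in 100 mM sodium acetate pH 5.5, 5 mM DTT, 0.00005% Triton X-100. Reaction started with 2 uM Z-FR-AMC; AMC fluorescence increase over 60 s gives rate.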
* = called active by the depositor; ? = inconclusive; & = joins results of further samples. Calls come from the whole dose curve; as a rule, active = well fitted curve in the direction sought with a large enough effect; inconclusive = small, poorly fitted or top-dose-only effect, or another doubt; inactive = no such curve, though single readings can be large; an effect the other way counts as inactive or inconclusive. Potency is the fitted concentration of half-maximal effect.

SMILES | Cruzain Triton | Cruzain inh noDet
C[C@@]12CC(=O)[C@H]3[C@@H](CCC4=CC(=O)CC[C@]43C)[C@H]1CCC2=O | -0.9% | -4%
C=C(CCC12O[C@H](C(=O)O)[C@@](O)(C(=O)O)[C@](C(=O)O)(O1)[C@H](OC(=O)/C=C/[C@@H](C)C[C@@H](C)CC)[C@H]2O)[C@@H](OC(C)=O)[C@H](C)Cc1ccccc1 | -8.1% | 26%
S=C=Nc1cccc2ccccc12 | -3.0% | -28%
CCC(C)C(=O)OC1CC(O)C=C2C=CC(C)C(CCC(O)CC(O)CC(=O)O)C21 (stereo not drawn) | 5.8% | ?
CCCC/C=C/C(NC(=O)c1ccccc1)c1ccccc1 (stereo not drawn) | -7.7% | -8%
CC(C)c1cccc2nc3c(c([Si](C)(C)C(C)(C)C)c12)Cn1c-3cccc1=O | -10% | 23%
OC(O)C(Cl)(Cl)Cl | 2.9% | -1%
COC1=C[C@H]2[C@H]3Cc4ccc(OC)c(O)c4[C@@]2(CCN3C)CC1=O | -0.4% | -4%
COc1cc(O)c(C(=O)c2ccccc2)cc1S(=O)(=O)O | -1.1% | -4%
N#Cc1ccc(CS(=O)(=O)c2nnnn2-c2ccccc2)cc1 | 4.0% | 4%
NS(=O)(=O)c1cc2c(cc1Cl)N[C@@H](CC1CCCC1)NS2(=O)=O | -0.2% | -12%
COC(=O)[C@@H]1C[C@H]1[C@@H](NS(=O)(=O)c1ccc2ccccc2c1)c1ccccc1 | -2.2% | 5%
CN1CCc2cc3c(cc2[C@@H]1O)OCO3 | -28% | -25%
O=c1cc(-c2ccccc2)oc2c1ccc1ccccc12 | -2.4% | ?
COc1ccc2c(c1)O[C@@H](c1ccc3c(c1)OCO3)[C@H](OC(=O)NCc1ccc3c(c1)OCO3)C2=O | -1.4% | -6%
Cc1cccc(NC(=O)N[C@@H]2N=C(c3ccccc3)c3ccccc3N(CC(=O)c3ccccc3C)C2=O)c1 | -2.1% | 32µM*
Cc1nc(NC2CCCCC2)c2nc(-c3ccccc3)n(C(C)CN(C)C)c2n1 (stereo not drawn) | -4.6% | -4%
COCCn1c(C(=O)N2CCCC2)cc2c1C[C@H]1CN(C(=O)c3ccccc3)[C@@](Cc3ccc(OC)cc3)(C(=O)OC)[C@@H]21 | -0.5% | ?
O=c1cc(-c2cccc(-c3ccc(C(F)(F)F)cc3)c2)c2cc3c(cc2o1)OCO3 | 3.1% | ?
CCCn1c(C)nc2c(N(CCN(CC)CC)CCN(CC)CC)nc(C)nc21 | -0.4% | 1%
COC(=O)[C@@]1(Cc2ccc(F)cc2)[C@H]2c3cc(C(=O)N4CCCC4)n(Cc4ccccn4)c3C[C@H]2CN1C(=O)c1ccccc1 | 0.8% | ?
COC(=O)CS | 1.9% | -1%
CC(=O)OCc1ccco1 | 4.3% | 0%
O=C(N[C@H]1CCCc2ccccc21)O[C@@H]1C(=O)c2cc(Br)ccc2O[C@H]1c1ccc2c(c1)OCO2 | 2.9% | -12%
COC(=O)[C@@H](NC(=O)O[C@H]1C(=O)c2cc(OC)ccc2O[C@@H]1c1ccc(OC)c(Br)c1)C(C)C | -5.7% | ?

Whole records, quoted from the list:
CCCn1c(C)nc2c(N(CCN(CC)CC)CCN(CC)CC)nc(C)nc21 across the screens: Cruzain Triton: -0.4%; Cruzain inh noDet: 1%
C=C(CCC12O[C@H](C(=O)O)[C@@](O)(C(=O)O)[C@](C(=O)O)(O1)[C@H](OC(=O)/C=C/[C@@H](C)C[C@@H](C)CC)[C@H]2O)[C@@H](OC(C)=O)[C@H](C)Cc1ccccc1 across the screens: Cruzain Triton: -8.1%; Cruzain inh noDet: 26%

Next compounds:
SMILES | Cruzain Triton | Cruzain inh noDet
c1cncc([C@H]2CCCCN2)c1 | -2.9% | -4%
Cc1cc(C(=O)O)sc1C(N)C(=O)O (stereo not drawn) | -2.2% | -3%
O=C1OC2C[C@H]1[C@@H]1C(=O)N(Cc3ccccc3)CCC1C2I (stereo partly drawn) | 2.2% | -3%
O=c1c(-c2ccc(O[C@@H]3O[C@H](CO)[C@@H](O)[C@H](O)[C@H]3O)cc2)coc2cc(O)cc(O)c12 | -3.2% | 0%
C[N+]1([O-])[C@@H]2CC[C@H]1CC(OC(=O)[C@@H](CO)c1ccccc1)C2 (stereo partly drawn) | -1.9% | -2%
CC1CCC2CC1C2(C)C (stereo not drawn) | -1.4% | 7%
COc1cccc([C@@H]2Oc3ccc(Br)cc3C[C@H]2OC(=O)Nc2ccc(C)c(Br)c2)c1 | 2.2% | -6%
C=C(C)C(=O)C1CCCCC1 | 3.3% | 6%
CC1(C)C(=O)C(c2ccccc2)=C2CN3C(=O)N(CCc4ccccc4)C(=O)C3(Cc3ccccc3)C=C21 (stereo not drawn) | 1.7% | 7%
CCC1=C2CC[C@H]3C(=O)N(c4ccccc4)C(=O)[C@H]3[C@H]2[C@@]2(Cc3ccccc3)C(=NCC3CC3)OC(=O)N2C1=O | 0.9% | 9%
CCN(CC)CCCC(C)n1c(-c2ccccc2)nc2c(NC3CCCCC3)nc(C)nc21 (stereo not drawn) | -4.9% | -6%
CC(C)(C)OOC(C)(C)C | -0.2% | 1%
COc1cccc([C@@H]2Oc3ccc(OC)cc3C(=O)[C@H]2OC(=O)NCCc2ccc(OC)c(OC)c2)c1 | -0.2% | 13%
CC(Cl)(Cl)Cl | 1.3% | -4%
COC(=O)N1[C@H](Cc2ccccc2)C=C[C@]1(C)C(=O)NCc1ccc(N(C)C)cc1 | -2.4% | 10%
CC1(C)CCC[C@@](C)([C@H]2CC[C@]3(C)[C@@H]2[C@H](O)C[C@@H]2[C@@]4(C)CC[C@H](O)C(C)(C)[C@@H]4[C@@H](O)C[C@]23C)O1 | -1.9% | ?
NCCC[C@@H](CC(=O)N[C@@H]1CCCC[C@H]1C(=O)N[C@H](CC(=O)N[C@@H](CCC(=O)O)CC(=O)O)Cc1ccccc1)NC(=O)C[C@H](CO)NC(=O)[C@@H]1CCCC[C@H]1N | 0.5% | -4%
Cc1ccc(CNC(=O)[C@H](C)[C@H]2C[C@]2(C)[C@H](NC(=O)OCc2ccccc2)c2ccccc2)c(F)c1F | 0.6% | -11%
COc1ccc(C(=O)C2C3C4COC(O4)C(=O)C3C3C=Cc4ccccc4N32)c(OC)c1 (stereo not drawn) | -14% | -20%
CC(C)C[C@@H](CC(=O)N[C@@H](CCC(=O)O)CC(=O)O)NC(=O)[C@@H]1CCCC[C@H]1NC(=O)C[C@H](CCCN)NC(=O)C[C@H](CO)NC(=O)[C@@H]1CNCC[C@H]1N | 4.5% | -4%
CCCN1[C@H](C(=O)OC)C[C@@]2(O)[C@@H](O)[C@@H](O)[C@@H](O)C[C@@H]12 | -1.6% | 2%
CCC[C@@H]1C[C@@]1(CCC)C(NP(=O)(c1ccccc1)c1ccccc1)c1ccc(Cl)cc1 (stereo partly drawn) | -15% | -22%
Cc1cc(Cl)ccc1O | 2.5% | -1%
O=C(O)c1ccc(Cl)c(Cl)c1 | -6.0% | -12%
C[C@@H]1CC2(OC[C@]3(C)O[C@H]23)O[C@H]2C[C@@]3(C)[C@@H]4CC[C@H]5C(C)(C)C(O[C@@H]6OC[C@@H](O)[C@H](O)[C@H]6O)CC[C@@]56C[C@@]46CC[C@]3(C)[C@@H]12 (stereo partly drawn) | -8.5% | ?
The list goes on:
SMILES | Cruzain Triton | Cruzain inh noDet
COc1cccc([C@@H]2Oc3ccc(OC)cc3C[C@H]2OC(=O)NCc2ccco2)c1 | -0.9% | 0%
O=c1c(O)c(-c2ccc(O)c(O)c2)oc2c(OC[C@@H]3O[C@@H](O)[C@@H](O)[C@H](O)[C@H]3O)c(O)cc(O)c12 | -5.2% | -11%
NCCC[C@@H](CC(=O)N[C@@H]1CCNC[C@H]1C(=O)N[C@H](CC(=O)N[C@@H](CCC(=O)O)CC(=O)O)Cc1ccccc1)NC(=O)C[C@H](Cc1ccccc1)NC(=O)[C@@H]1CCCC[C@H]1N | 1.8% | 10%
CC(C)C[C@@H](CC(=O)N[C@@H](CCC(=O)O)CC(=O)O)NC(=O)[C@@H]1CCCC[C@H]1NC(=O)C[C@H](CCCN)NC(=O)C[C@H](Cc1ccccc1)NC(=O)[C@@H]1CNCC[C@H]1N | 6.1% | -4%
CC[C@H](C)[C@@H](NC(=O)O[C@@H]1C(=O)c2ccc(OC)cc2O[C@H]1c1cccc(C(F)(F)F)c1)C(=O)OC | 5.3% | -3%
CCN(CC)CCCC(C)n1c(-c2ccccc2)nc2c(N3CCOCC3)nc(C)nc21 (stereo not drawn) | -0.2% | -2%
COCOc1ccccc1C(=O)/C=C/c1ccccc1 | 1.6% | -12%
CC1(OC(=O)c2ccc(Cl)nc2)C(=O)C=C2C=C(c3ccc(C#N)cc3)OC=C2C1=O (stereo not drawn) | -2.1%&-2.3% | -14%&-11%
Oc1c(Cl)c(Cl)c(Cl)c(Cl)c1Cl (tested in a mixture with another compound) | 1.4%&-0.1%&-3.8%&-6.8% | -1%&7%&-7%&-5%
CCOC(=O)OCC | 0.7% | 5%
COC(=O)[C@@]1(Cc2ccc(OC)cc2)[C@H]2c3cc(C(=O)N(C)C)n(Cc4ccccc4)c3C[C@H]2CN1C(=O)c1ccccc1 | -2.7% | ?
Oc1cccc(O)c1O | -5.3% | 1%
COc1cc2c(C=O)c3c4c(cc(OC)c(OC)c4c2cc1OC)CCN3C | -3.2% | ?
CCCC[C@H](CC)CN1CN(C[C@@H](CC)CCCC)CC(C)(N)C1 | 0.6% | 7%
CCCCCCCCC1CO1 (stereo not drawn) | 1.7% | 1%
CCC(C)CCCCC(=O)NC(CCN)C(=O)NC(C(=O)NC(CCN)C(=O)NC1CCNC(=O)C(C(C)O)NC(=O)C(CCN)NC(=O)C(CCN)NC(=O)C(CC(C)C)NC(=O)C(Cc2ccccc2)NC(=O)C(CCN)NC1=O)C(C)O (stereo not drawn) | -2.4% | -1%
Cc1nc(N2CCOCC2)c2nc(-c3ccccc3)n(CCN3CCCCC3)c2n1 | 3.9% | -5%
CCCn1c(-c2ccc(F)cc2)nc2c(NCC3CCN(C)CC3)nc(C)nc21 | -8.0% | -3%
COCC(=O)O | 5.5% | 0%
O=C1C=C2C=CC3C[C@@]2(O1)C1CCCCN31 (stereo partly drawn) | 2.4% | 4%
O=Nc1ccc(NO)cc1 | -5.0% | -8%
COC(=O)CC1Oc2cc3oc4c5ccccc5oc(=O)c4c3cc2O1 (stereo not drawn) | -2.7% | -2%
COc1ccc(C)cc1N | -1.6% | -3%
COc1ccc2c(c1)C(c1ccc(C)cc1)CC(=O)O2 (stereo not drawn) | -2.8% | -9%
COc1cc2c(Cc3c4c5c(cc(OC)c(OC)c5c5c(OC)c(OC)ccc35)CCN4C)c3c4c(cc(OC)c(OC)c4c2cc1OC)CCN3C | 1.9% | 9%
COC(=O)[C@@]1(Cc2ccccc2)[C@H]2c3cc(C(=O)N(C)C)n(Cc4cc(C)n(C)n4)c3C[C@H]2CN1C(=O)c1ccccc1 | 4.9% | ?

15 structures out of the list, arranged by number of heavy atoms, ascending.
SMILES | Cruzain Triton | Cruzain inh noDet
COCC(=O)O | 5.5% | 0%
CCOC(=O)OCC | 0.7% | 5%
Oc1cccc(O)c1O | -5.3% | 1%
COc1ccc(C)cc1N | -1.6% | -3%
Oc1c(Cl)c(Cl)c(Cl)c(Cl)c1Cl (tested in a mixture with another compound) | 1.4%&-0.1%&-3.8%&-6.8% | -1%&7%&-7%&-5%
COCOc1ccccc1C(=O)/C=C/c1ccccc1 | 1.6% | -12%
COC(=O)CC1Oc2cc3oc4c5ccccc5oc(=O)c4c3cc2O1 (stereo not drawn) | -2.7% | -2%
CC1(OC(=O)c2ccc(Cl)nc2)C(=O)C=C2C=C(c3ccc(C#N)cc3)OC=C2C1=O (stereo not drawn) | -2.1%&-2.3% | -14%&-11%
O=c1c(O)c(-c2ccc(O)c(O)c2)oc2c(OC[C@@H]3O[C@@H](O)[C@@H](O)[C@H](O)[C@H]3O)c(O)cc(O)c12 | -5.2% | -11%
CC[C@H](C)[C@@H](NC(=O)O[C@@H]1C(=O)c2ccc(OC)cc2O[C@H]1c1cccc(C(F)(F)F)c1)C(=O)OC | 5.3% | -3%
COC(=O)[C@@]1(Cc2ccccc2)[C@H]2c3cc(C(=O)N(C)C)n(Cc4cc(C)n(C)n4)c3C[C@H]2CN1C(=O)c1ccccc1 | 4.9% | ?
COC(=O)[C@@]1(Cc2ccc(OC)cc2)[C@H]2c3cc(C(=O)N(C)C)n(Cc4ccccc4)c3C[C@H]2CN1C(=O)c1ccccc1 | -2.7% | ?
COc1cc2c(Cc3c4c5c(cc(OC)c(OC)c5c5c(OC)c(OC)ccc35)CCN4C)c3c4c(cc(OC)c(OC)c4c2cc1OC)CCN3C | 1.9% | 9%
CC(C)C[C@@H](CC(=O)N[C@@H](CCC(=O)O)CC(=O)O)NC(=O)[C@@H]1CCCC[C@H]1NC(=O)C[C@H](CCCN)NC(=O)C[C@H](Cc1ccccc1)NC(=O)[C@@H]1CNCC[C@H]1N | 6.1% | -4%
NCCC[C@@H](CC(=O)N[C@@H]1CCNC[C@H]1C(=O)N[C@H](CC(=O)N[C@@H](CCC(=O)O)CC(=O)O)Cc1ccccc1)NC(=O)C[C@H](Cc1ccccc1)NC(=O)[C@@H]1CCCC[C@H]1N | 1.8% | 10%

Not all compounds are listed; rates above refer to the full screens.
